MK inhibit: S. pneumoniae mevalonate kinase inhibition; purified MK, PK/LDH-coupled NADH absorbance 340 nm; inhibition, % at 10 µM; actives 0.48% (n = 65,000); AID 555;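 active means ranked among the strongest by inhibition in the single 10 µM screen, a fixed top-ranked set picked for dose follow-up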; further: no value below 0 was filed
LYP phosphatase: LYP phosphatase inhibitors, primary screen, biochemical, DiFMUP fluorescence, recombinant catalytic domain, 10 µM (AID 606). inhibition, % at 10 µM, or IC50 in µM where a hit was titrated. 52,000 tested, under 10 active. recombinant LYP catalytic domain, DiFMUP fluorescence; higher % means a stronger effect;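 active means IC50 under 40 µM in the dose-response test; inactive means IC50 of 40 µM or more, or never dose-tested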
Spn PMK inh: inhibitors of Streptococcus pneumoniae phosphomevalonate kinase; inhibition, % at 10 µM; purified PMK, PK/LDH-coupled NADH absorbance 340 nm; actives 0.49% (n = 65,000);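 active means top-ranked compounds by inhibition in the single 10 µM screen, taking a fixed number of the strongest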;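 further: 0% = full reaction with DMSO carrier and 100% = background rate without enzyme reaction; no value below 0 was filed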
DPM-DC inhibit: inhibitors of Streptococcus pneumoniae diphosphomevalonate decarboxylase; purified DPM-DC, PK/LDH coupled NADH fluorescence; calls only at 10 µM; actives 0.49% (n = 65,000);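 active means the 320 compounds with the highest percent inhibition in the single-dose primary screen, excluding strongly autofluorescent ones, cut at about 32% in these data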;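 further: kinetic rate of NADH fluorescence loss reporting ADP formed by the decarboxylase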
Bfl-1 inhibitors: Bfl-1 inhibitors, primary screen, biochemical, fluorescence polarization, FITC-Bid, mouse (AID 432); FITC-Bid BH3 peptide fluorescence polarization displacement; higher % means a stronger effect; one-dose displacement, % at 20 µM; IC50 in µM for titrated hits; actives 0.02% (n = 64,000); in the data active means a potency from the dose series; inactive means the rest, 99 in 100 with displacement below about 15%; further: strong numbers were not always called active
Spn PMK inh pilot replicates: recorded beside Spn PMK inh, whose call it bears; inhibition, %; measured here: pilot screen replicates
MK inhibit pilot replicates: second read-out of MK inhibit, no call of its own (marks repeat the call); inhibition, %; measured here: pilot screen replicates
DPM-DC inhibit pilot screen %: further read-out of DPM-DC inhibit, marked with its call; inhibition, %; measured here: pilot screen trials
* = called active by the depositor; i = inactive; · = not tested or not shown; [ ] = dose if it differs, or a comment.

smiles,MK inhibit,MK inhibit pilot replicates,LYP phosphatase,Spn PMK inh,Spn PMK inh pilot replicates,DPM-DC inhibit,DPM-DC inhibit pilot screen %,Bfl-1 inhibitors
COc1cc2nc(N3CCN(C(=O)c4ccco4)CC3)nc(N)c2cc1OC,6,0.0,13%,0,3.5,i[fluoresces],100,4%
Cc1cc(=O)oc2n[nH]c(-c3ccccc3)c12,0,·,18%,12,·,i,·,1%
COc1ccc(-c2cc(NCc3ccccn3)n3ncnc3n2)cc1,7,·,5%,0,·,i,·,-4%
O=C(CSc1nc2ncccc2[nH]1)c1ccc(F)cc1,6,·,3%,4,·,i,·,-6%
COC(=O)c1cc(-c2ccc(Br)cc2)n[nH]1,5,·,·,17,·,i,·,-2%
CCCNCC(O)COc1ccccc1C(=O)CCc1ccccc1 (stereo not drawn),2,1.0,16%,0,1.0,i,1.0,-2%
O=P(O)(O)c1ccccc1OCCCCCOc1ccccc1P(=O)(O)O,7,·,17%,12,·,i,·,-2%
O=C(CSc1n[nH]c(-c2ccccc2)n1)NC(=O)NCc1ccco1,0,·,6%,13,·,i,·,-2%
CNC[C@H](O)c1cccc(O)c1,4,1.0,1%,3,3.0,i,0.0,-12%
O=C(CSc1n[nH]c(-c2ccccc2Br)n1)NC(=O)NCc1ccco1,2,·,-6%,7,·,i,·,-7%
C[C@H]1O[C@H]1P(=O)(O)O,·,·,17%,·,·,·,·,·

Another view of part of the listing above.
COc1cc2nc(N3CCN(C(=O)c4ccco4)CC3)nc(N)c2cc1OC
  MK inhibit = 6; MK inhibit pilot replicates = 0.0; LYP phosphatase = 13%; Spn PMK inh = 0; Spn PMK inh pilot replicates = 3.5; DPM-DC inhibit = i[fluoresces]; DPM-DC inhibit pilot screen % = 100; Bfl-1 inhibitors = 4%

Cc1cc(=O)oc2n[nH]c(-c3ccccc3)c12
  MK inhibit = 0; MK inhibit pilot replicates = ·; LYP phosphatase = 18%; Spn PMK inh = 12; Spn PMK inh pilot replicates = ·; DPM-DC inhibit = i; DPM-DC inhibit pilot screen % = ·; Bfl-1 inhibitors = 1%

COc1ccc(-c2cc(NCc3ccccn3)n3ncnc3n2)cc1
  MK inhibit = 7; MK inhibit pilot replicates = ·; LYP phosphatase = 5%; Spn PMK inh = 0; Spn PMK inh pilot replicates = ·; DPM-DC inhibit = i; DPM-DC inhibit pilot screen % = ·; Bfl-1 inhibitors = -4%

O=C(CSc1nc2ncccc2[nH]1)c1ccc(F)cc1
  MK inhibit = 6; MK inhibit pilot replicates = ·; LYP phosphatase = 3%; Spn PMK inh = 4; Spn PMK inh pilot replicates = ·; DPM-DC inhibit = i; DPM-DC inhibit pilot screen % = ·; Bfl-1 inhibitors = -6%

Shown with values ahead of the structure: part of the list above
MK inhibit | MK inhibit pilot replicates | LYP phosphatase | Spn PMK inh | Spn PMK inh pilot replicates | DPM-DC inhibit | DPM-DC inhibit pilot screen % | Bfl-1 inhibitors | Structure
· | · | 17% | · | · | · | · | · | C[C@H]1O[C@H]1P(=O)(O)O
0 | · | 6% | 13 | · | i | · | -2% | O=C(CSc1n[nH]c(-c2ccccc2)n1)NC(=O)NCc1ccco1

Screening data deposited in PubChem BioAssay by several laboratories.

The list is partial; count on the stated rates, not on these rows.
